Screening results: PubChem, National Center for Advancing Translational Sciences (NCATS)
GAA glycogen mod: alters human alpha-glucosidase cleavage of glycogen. P10253. recombinant GAA, glycogen substrate, Amplex Red glucose oxidase fluorescence. Potency, µM (highest dose often 76.4 µM), without a hit: top-dose activity change, negative = inhibition, most hits filed as inhibitors. 300,000 tested, 0.38% active;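 further: 0% = full enzyme reaction and -100% = no-enzyme basal signal; the screen sought inhibitors and activators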
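Recombinant human enzyme (4 nM); glycogen substrate; 37 C, 40 min, pH 5.0. Readout: coupled glucose oxidase/Amplex Red fluorescence.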
aGlu spleen mod: lysosomal alpha-glucosidase (human) modulation; P10253; human spleen homogenate, 4-MU-alpha-glucoside fluorescence; Potency, µM (top dose mostly 79.9 µM), without a hit: at the top dose activity change, negative = inhibition, most hits filed as inhibitors; 240,000 tested, 0.006% active; AID 2112;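 further: 0% = enzyme with vehicle and -100% = no enzyme basal signal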
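Human spleen homogenate (1 ug) with 4-methylumbelliferyl-alpha-D-glucopyranoside (1 mM final) in 50 mM citrate/phosphate pH 5.0, 0.01% Tween-20; 40 min at 37 C. Stopped at pH 10; 4-MU fluorescence Ex 365/Em 440 nm; AC50 by Hill fit.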
GAA inhib: alpha-glucosidase (human) inhibition | P10253 | purified human GAA, 4-MU-alpha-glucoside fluorescence | Potency, µM (highest dose often 76.9 µM), for inactives: at the highest dose activity change, negative = inhibition, actives largely listed as inhibitors | 200,000 tested, 0.005% active | AID 1466;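 further: plate controls were uninhibited enzyme wells for no effect and no-enzyme background for full effect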
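Activity normalized between no-enzyme (basal) and enzyme-only wells. Conditions: 4 nM human enzyme, 400 uM fluorogenic substrate, citrate/phosphate pH 5.0 with Tween-20, 20 min room temperature, compounds up to 77 uM.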
TRb-SRC2 inh: disrupts binding of human TR beta to SRC2 | P10828 | TRbeta-SRC2 peptide binding, fluorescence polarization; receptor liganded with 1 µM T3 | Potency, µM (top dose mostly 106 µM), for the others: at the top dose activity change, negative = inhibition, most hits filed as inhibitors | 280,000 tested, 0.065% active;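 further: plate controls were bound peptide for no effect and peptide without receptor for full effect; nearly all actives have a fitted effect of over 50% in size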
Target sequence (P10828 whole entry, looked up): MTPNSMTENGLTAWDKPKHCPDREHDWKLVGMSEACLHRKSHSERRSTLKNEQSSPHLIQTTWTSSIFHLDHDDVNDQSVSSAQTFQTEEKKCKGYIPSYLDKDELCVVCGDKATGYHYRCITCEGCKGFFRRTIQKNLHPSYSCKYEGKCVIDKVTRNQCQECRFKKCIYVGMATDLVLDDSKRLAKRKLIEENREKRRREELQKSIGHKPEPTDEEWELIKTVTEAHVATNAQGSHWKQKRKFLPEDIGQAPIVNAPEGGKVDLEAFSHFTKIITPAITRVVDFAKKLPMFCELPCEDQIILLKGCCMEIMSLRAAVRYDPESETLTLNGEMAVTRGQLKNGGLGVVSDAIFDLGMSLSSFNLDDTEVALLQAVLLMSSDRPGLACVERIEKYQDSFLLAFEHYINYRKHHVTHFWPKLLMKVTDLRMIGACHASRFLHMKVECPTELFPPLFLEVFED
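Human TRb ligand-binding domain (0.6 uM) is mixed with 20 nM Texas Red SRC2 peptide and 1 uM T3; after compound addition and 5 hr at ambient temperature, polarization is measured and normalized to unbound and bound controls.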
TexasRed fluor: alters Texas Red total fluorescence, flagging assay interference; TRb/SRC2 Texas Red total fluorescence interference; Potency, µM (titrated, usually from 106 µM), for the others: at the top dose fluorescence change, negative = quenching; 280,000 tested, 0.29% active; AID 1479; active means well fitted curve in either direction with a large enough effect; inconclusive means small, poorly fitted or top-dose-only effect
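Human TRb ligand-binding domain at 0.6 uM with 20 nM Texas Red SRC2 peptide in Tris buffer containing 1 uM T3 and 5% DMSO, incubated with compound 5 h at ambient temperature. Total fluorescence (555/632 nm) calculated as parallel + 2 × perpendicular.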
Numbers without * were called inactive; u = inconclusive; x = no result given; & = joins results of further samples; [ ] = remark or other dose. Unless noted, the call rests on the fitted dose curve; in most records, active means well fitted curve in the direction sought with a large enough effect; inconclusive means small, poorly fitted or top-dose-only effect, or another doubt; inactive means no such curve, though single readings can be large; an effect the other way counts as inactive or inconclusive. Unless noted, on the % scale 0 is the no-effect control and ±100 the full control effect; potency means the concentration at half of the fitted maximal effect.

SMILES	GAA glycogen mod	aGlu spleen mod	GAA inhib	TRb-SRC2 inh	TexasRed fluor
O=C(O)CCCCC1CCSS1 (stereo unspecified)	-5%	-2%&6%&-14%&-1%	4%	u	-1%
CN(CCOC(=O)/C=C/c1ccco1)Cc1ccccc1	u	-13%	5%	0%	1%
COc1ccc2cc(C(C)C(=O)O)ccc2c1 (stereo unspecified)	x	0%&-2%&-2%	x	2%&5%&7%	3%&0%&1%
O=C(O)COCCN1CCN([C@@H](c2ccccc2)c2ccc(Cl)cc2)CC1	x	-3%[29.1 µM]	x	-5%[53 µM]	0%[53 µM]
O=C(COC(=O)C1CC2C=CC1C2)NCc1ccco1 (stereo unspecified)	-3%	3%	3%	-2%	-5%
NC(=O)COC(=O)c1ccc(S(=O)(=O)NCc2ccco2)cc1	1%	-3%	1%	-2%	0%
COc1c(-c2ccc(O)cc2)oc2cc(O)cc(O)c2c1=O	-14%	5%	x	2%	-5%
CCN(CC)C(=O)COC(=O)c1cc(-c2ccco2)nc2ccccc12	0%	1%	10%	1%	35µM*[quencher]
CC(C)[C@H](NC(=O)Cc1ccccc1)C(=O)OCc1cc(=O)n2c(n1)sc1ccccc12	16%	-3%	2%	9%	-9%

Part of the list above in order of formula weight, rising.
SMILES	GAA glycogen mod	aGlu spleen mod	GAA inhib	TRb-SRC2 inh	TexasRed fluor
O=C(O)CCCCC1CCSS1 (stereo unspecified)	-5%	-2%&6%&-14%&-1%	4%	u	-1%
COc1ccc2cc(C(C)C(=O)O)ccc2c1 (stereo unspecified)	x	0%&-2%&-2%	x	2%&5%&7%	3%&0%&1%
O=C(COC(=O)C1CC2C=CC1C2)NCc1ccco1 (stereo unspecified)	-3%	3%	3%	-2%	-5%
CN(CCOC(=O)/C=C/c1ccco1)Cc1ccccc1	u	-13%	5%	0%	1%
COc1c(-c2ccc(O)cc2)oc2cc(O)cc(O)c2c1=O	-14%	5%	x	2%	-5%
NC(=O)COC(=O)c1ccc(S(=O)(=O)NCc2ccco2)cc1	1%	-3%	1%	-2%	0%
CCN(CC)C(=O)COC(=O)c1cc(-c2ccco2)nc2ccccc12	0%	1%	10%	1%	35µM*[quencher]
O=C(O)COCCN1CCN([C@@H](c2ccccc2)c2ccc(Cl)cc2)CC1	x	-3%[29.1 µM]	x	-5%[53 µM]	0%[53 µM]
CC(C)[C@H](NC(=O)Cc1ccccc1)C(=O)OCc1cc(=O)n2c(n1)sc1ccccc12	16%	-3%	2%	9%	-9%

This is a subset; the hit share may differ from the screen's.
